From PubChem BioAssay
hNpr1 antagonist: antagonists of human natriuretic peptide receptor Npr1; P16066; AID 1347048; Potency, µM (titrated, usually from 46.3 µM), for the others: at the highest dose activity change, negative = inhibition, actives largely listed as inhibitors; HEK293 hNpr1 GloSensor cGMP, ANP-stimulated luminescence; hit rate 1.6% among 76,000; active = well fitted inhibition curve with a large enough effect; inconclusive = small, poorly fitted or top-dose-only effect; inactive = no such curve, though single readings can be large or run the other way;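 note: nearly all actives have a fitted effect of over 60% in size; nearly all hits also lower the signal before the agonist is added; a reference antagonist and vehicle were the controls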
Target sequence (P16066 whole entry, looked up): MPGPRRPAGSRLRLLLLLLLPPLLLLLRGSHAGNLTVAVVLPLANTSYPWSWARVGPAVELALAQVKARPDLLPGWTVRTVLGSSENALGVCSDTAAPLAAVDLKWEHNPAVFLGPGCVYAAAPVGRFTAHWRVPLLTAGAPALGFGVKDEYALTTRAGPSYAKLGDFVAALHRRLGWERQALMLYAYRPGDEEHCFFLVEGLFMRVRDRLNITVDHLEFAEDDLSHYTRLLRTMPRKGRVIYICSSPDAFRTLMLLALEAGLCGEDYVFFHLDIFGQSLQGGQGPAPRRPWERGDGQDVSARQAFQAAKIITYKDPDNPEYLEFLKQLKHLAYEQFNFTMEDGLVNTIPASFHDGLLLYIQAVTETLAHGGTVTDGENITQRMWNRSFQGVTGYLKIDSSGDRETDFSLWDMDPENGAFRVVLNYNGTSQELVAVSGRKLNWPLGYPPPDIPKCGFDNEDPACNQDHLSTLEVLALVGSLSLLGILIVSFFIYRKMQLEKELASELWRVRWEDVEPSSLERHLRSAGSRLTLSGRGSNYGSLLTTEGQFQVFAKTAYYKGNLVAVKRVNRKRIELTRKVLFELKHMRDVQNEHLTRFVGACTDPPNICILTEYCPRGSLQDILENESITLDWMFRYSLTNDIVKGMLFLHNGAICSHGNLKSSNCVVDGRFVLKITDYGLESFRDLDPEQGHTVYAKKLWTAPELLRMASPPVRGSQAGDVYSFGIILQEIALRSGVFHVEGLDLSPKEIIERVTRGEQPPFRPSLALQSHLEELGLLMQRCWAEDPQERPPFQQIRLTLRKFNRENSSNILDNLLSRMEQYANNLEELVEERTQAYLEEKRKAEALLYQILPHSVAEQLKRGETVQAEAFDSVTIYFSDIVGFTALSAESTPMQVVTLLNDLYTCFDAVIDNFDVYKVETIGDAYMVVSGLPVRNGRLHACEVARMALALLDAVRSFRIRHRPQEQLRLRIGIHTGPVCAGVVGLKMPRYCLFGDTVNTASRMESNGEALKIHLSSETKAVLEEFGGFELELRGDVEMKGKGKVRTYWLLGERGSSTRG
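HEK293 cells stably expressing human Npr1 and cGMP GloSensor pGS-40F, loaded 2 h with 2% GloSensor reagent, given compound 30 min at room temperature. Luminescence read before and 20 min after 0.1 nM hNppA.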
* marks the source's active call; other numbers are inactive results; u = inconclusive; [ ] = dose if it differs, or a comment. % is set by controls: 0 for no effect and ±100 for the full control effect; potency is the fitted concentration of half-maximal effect. Not all compounds are listed. The share of hits here may be higher or lower than overall.

SMILES	hNpr1 antagonist
O=C(NCc1ccncc1)c1ccc2c(c1)n(Cc1ccc(F)cc1)c(=O)c1ccnn12	-2%
NC(=O)CN1C(=O)CO[C@H]2CN(Cc3ccc(Cl)cc3)C[C@H]21	-7%[70.6 µM]
O=C(CC1CCCC1)N1CCOc2ccc(CN3CCc4ccccc4C3)cc2C1	-30%
CCC(C)n1c(=O)[nH]c2cccnc21 (stereo not drawn)	15%[70.6 µM]
CCCN1C(=O)[C@H]2CC[C@@H]1CN(C(=O)c1nc(-c3ccccc3)[nH]c1C)C2	2%
COc1ccc(CN2C(=O)[C@@H]3C[C@@H](O)CN3C3(CN(Cc4ccc(F)cc4)C3)C2=O)cc1	-1%
Cc1occc1-c1nc2ncccc2[nH]1	2%[70.6 µM]
O=C1NCCOCCN(S(=O)(=O)c2cccc3cccnc23)[C@@H]2CCCC[C@H]12	2%
CCc1nc(-c2c3n(c(=O)n(Cc4ccc(F)cc4F)c2=O)CCCC3)no1	-3%
c1ccc([C@@H]2CNC[C@H]2COc2ccncc2)nc1	0%
Cc1cnc(C(=O)N[C@@H]2CCC[C@@H]2C(=O)NCc2ccc(C)c(C)c2)cn1	-2%
NC(=O)CO[C@@H]1CO[C@H]2[C@@H]1OC[C@@H]2NS(=O)(=O)c1cccs1	5%[70.6 µM]
Cc1nnc([C@@H]2CC(F)(F)CN2S(=O)(=O)c2ccc(F)cc2)o1	0%
COc1ccccc1C(CC(=O)NCCc1ccccc1)c1c[nH]c2ccccc12 (stereo not drawn)	-5%
CCCCC1CN(c2ccc(Cl)cc2)C(=O)CN1C(=O)CNC(=O)OC (stereo not drawn)	-2%
COCCN1Cc2nc(-c3cnn(Cc4ccccc4)c3)ccc2OCC1=O	-18%[70.6 µM]
C=CCN1CC2(CCC1=O)CCN(C(=O)[C@@H](O)Cc1ccccc1)CC2	-2%
O=C1NC2(CCN(Cc3cccc4ccccc34)CC2)COc2ccccc21	-2%
COc1ccc(-c2[nH]ncc2CN)cc1	0%
Cc1ccccc1NC(=O)N(C)CC1CCOC1 (stereo not drawn)	4%
CC(C)NC(=O)N1CCC(N2C(=O)C3(CCCC3)C2c2ccccc2)CC1 (stereo not drawn)	6%
CCc1c(C(=O)N2CCCN(C)C3(CCN(C)CC3)C2)csc1C	9%
O=C(c1ccccc1Cl)N1CCC2(CC1)CCN(CCc1ccccc1)c1ccccc1O2	7%
Cc1noc([C@@H]2CNC[C@H]2CO)n1	4%
CC1(C)CNC(=O)c2nc(C3(CN4CCCC4)CC3)[nH]c2C1	-10%
Cc1ncccc1C(=O)N1CCC(N2C(=O)C3(CCCC3)C2c2ccccc2)CC1 (stereo not drawn)	2%
O[C@@H]1C[C@@H](c2nc(-c3cnccn3)no2)N(CC2CCCCC2)C1	5%[70.6 µM]
CC(C)NC(=O)C1COC2(CCN(C(=O)CC(C)(C)C)CC2)N1C(=O)c1ccccc1 (stereo not drawn)	-3%
COc1ccc(-c2noc(CNC(=O)c3cnn(C(C)C)c3)n2)cc1OC	-1%
O=C(NCC(F)(F)F)C1CN(Cc2ccccc2)C(=O)N1 (stereo not drawn)	13%[70.6 µM]

Some of the entries above, set out differently.
hNpr1 antagonist	SMILES
6%	CC(C)NC(=O)N1CCC(N2C(=O)C3(CCCC3)C2c2ccccc2)CC1 (stereo not drawn)
9%	CCc1c(C(=O)N2CCCN(C)C3(CCN(C)CC3)C2)csc1C
7%	O=C(c1ccccc1Cl)N1CCC2(CC1)CCN(CCc1ccccc1)c1ccccc1O2
4%	Cc1noc([C@@H]2CNC[C@H]2CO)n1
-10%	CC1(C)CNC(=O)c2nc(C3(CN4CCCC4)CC3)[nH]c2C1
2%	Cc1ncccc1C(=O)N1CCC(N2C(=O)C3(CCCC3)C2c2ccccc2)CC1 (stereo not drawn)
5%[70.6 µM]	O[C@@H]1C[C@@H](c2nc(-c3cnccn3)no2)N(CC2CCCCC2)C1

More structures.
SMILES	hNpr1 antagonist
CN1CC(c2ccccc2)CC2(CCN(C(=O)c3ccc(=O)n(C)c3)CC2)C1 (stereo not drawn)	2%
COCCN(C)C[C@H]1C[C@H](CO)CN(C(=O)c2cc(Cl)cc(OC)c2)C1	-3%
CCCn1ncc(-c2nc(-c3ccncc3)no2)c1C	u
C=CCOc1cc(C)c2c(c1C)[C@H](O)C([C@H](C)C(=O)NCCOC)CC2 (stereo partly drawn)	7%[70.6 µM]
Cc1ccsc1CN1CCCC(c2nc(-c3cccnc3)no2)CCNC(=O)CC1 (stereo not drawn)	-2%
CN(C)c1nc2c(c(=O)[nH]1)CCN(Cc1ccc(F)cc1)CC2	2%
O=C(NCCc1cnc[nH]1)C1CC(=O)N(c2n[nH]c3ccccc23)C1 (stereo not drawn)	1%
CS(=O)(=O)N1CCCCCNC(=O)[C@@H]2CCCC[C@@H]21	-1%
CC(C)c1noc(C2CCCN(C(=O)Nc3ccccc3)CCC(=O)NCC2)n1 (stereo not drawn)	-2%
COc1ccccc1C(=O)N1C[C@H](c2nc(-c3ccncc3)no2)[C@@H](C)C1	-17%

Sorted by SMILES length (high to low): some entries from above.
SMILES	hNpr1 antagonist
CN1CC(c2ccccc2)CC2(CCN(C(=O)c3ccc(=O)n(C)c3)CC2)C1 (stereo not drawn)	2%
Cc1ccsc1CN1CCCC(c2nc(-c3cccnc3)no2)CCNC(=O)CC1 (stereo not drawn)	-2%
CS(=O)(=O)N1CCCCCNC(=O)[C@@H]2CCCC[C@@H]21	-1%

More entries follow:
SMILES	hNpr1 antagonist
Cn1nccc1-c1cc2c(ccn2C)c(C(=O)NCCc2cnc[nH]2)n1	1%[70.6 µM]
COC(=O)[C@@H]1Cc2ncn(Cc3ccc(OC)cc3)c2CN1C(=O)CC(C)(C)C	0%[70.6 µM]
O=C1c2c(nc(COc3ccccc3)n2Cc2ccccc2)NCCN1CCOc1ccccc1	-25%
CN(C)C[C@@H]1CN(Cc2ccccn2)C[C@H]1NS(=O)(=O)c1ccccc1F	5%
CN1CCCCCCN(C(=O)Cn2c(=O)oc3ccccc32)[C@H]2CCC[C@H]2C1=O	5%
Cc1cccc(NC(=O)Nc2ccc(C)n(CC(=O)N(C)C)c2=O)c1	3%
CNC(=O)CCn1ncc2cc(OCc3ccccc3-c3cc(F)ccc3OC)ccc21	-19%[70.6 µM]
CCOc1ccc(Cl)cc1CN(C)CC1(O)CCCNC1 (stereo not drawn)	-1%
COc1cccc(-c2noc(-c3ccc(N4CCCC(CO)C4)nc3)n2)c1OC (stereo not drawn)	-29%
O=C(C1CC1)N1C[C@@H]2OCC(=O)N(c3ccccc3)[C@@H]2C1	-2%[70.6 µM]
O=C(N1CCN(c2cc(-c3ccc(Cl)cc3)[nH]n2)CC1)C1(c2ccccc2)CC1	u
O=C(c1cnc[nH]1)N1CC(F)(F)C[C@H]1c1nc(C2CC2)no1	0%
O=c1[nH]c(C2CCCN(Cc3ccccc3)C2)nn1-c1ccccc1 (stereo not drawn)	16%[70.6 µM]
O=C(NCCc1ccccc1)[C@@H]1C[C@@H](c2ccc(F)cc2)N([S+](=O)([O-])c2ccccc2)C1	1%
CCOC(=O)c1cccc(NC(=O)N2CC[C@@H](CC(=O)NCc3ccc(F)cc3)[C@@H](CC)C2)c1	0%
Cn1ccnc1C(NC(=O)c1cn(CCN)nn1)C1CC1 (stereo not drawn)	-2%
CNC(=O)[C@@H]1CN(C(=O)c2cccn2C)C[C@H]1COC	-17%
Cc1cccc2c1nc1n2[C@@H](CNS(=O)(=O)c2ccccc2)COC1	u
O=C(Cc1ccsc1)NCCC1CCN(C(=O)Nc2cccc(F)c2)CC1	-7%
COCc1cc(C[C@H]2CNCC[C@H]2CC(=O)NCc2ccccc2OC)no1	4%[70.6 µM]
CNC(=O)[C@@H]1CN(C(=O)COc2ccc(Cl)cc2)C[C@H]1COC	1%
CCNC(=O)N1CCCCC1c1nc(CCOc2ccc(F)cc2)no1 (stereo not drawn)	1%
O=S(=O)(Cc1ccccc1F)N1CCCC(CN2CCOCC2)CC1 (stereo not drawn)	4%
COc1ccc(C[C@H](NC(=O)[C@@H]2C[C@H](NC(=O)Nc3cccc(SC)c3)CN2C(=O)c2cccn2C)C(N)=O)cc1	-2%
O=C(c1cnccn1)N1CC2CC(C1)[C@H]1CCCC(=O)N1C2 (stereo partly drawn)	3%
Cc1cc(C)n(Cc2ccc(C(=O)NCC(=O)N3CCCCCNC(=O)CC3c3ccccc3)o2)n1 (stereo not drawn)	1%
Cc1nn(-c2ccc(C(C)(C)C)cc2)c(C)c1[C@@H]1C=C[C@@H](NC(=O)Nc2ccccc2)C1	-21%[70.6 µM]
O=C(NCC1(COc2ccccc2)C[C@@H](O)[C@@H](O)C1)C1CCOCC1 (stereo partly drawn)	0%[70.6 µM]
Cc1ccc(C)c(NC(=O)Cn2ccn3nc(-c4ccccc4)c(CO)c3c2=O)c1	-1%
CC(C)(C)c1cc(C[C@@H]2C[C@H](NS(=O)(=O)c3ccccc3)C2(C)C)no1	-1%[70.6 µM]
CCCn1cnc2c1CN(S(=O)(=O)c1cccc(C(F)(F)F)c1)[C@H](C(=O)OC)C2	-6%[70.6 µM]
CCC1Oc2ccc(NC(=O)Cc3cccs3)cc2CN(Cc2ccc(OC)cc2)C1=O (stereo not drawn)	-30%
O=C(CC1COCCN1S(=O)(=O)c1ccccc1)NCc1ccccn1 (stereo not drawn)	-2%
COc1ccc(C(=O)N2CCC(Cc3nc(-c4ccccc4)n[nH]3)CC2)cc1OC	2%
CN1C[C@@H]2CC[C@H](CC1=O)N2Cc1ccc(S(C)(=O)=O)cc1	5%
CNC(=O)N1C[C@@H](CN(C)C)[C@H](NS(=O)(=O)c2ccc(F)cc2F)C1	5%
COC1CCC12CCN(C(=O)COc1ccc(F)cc1)CC2 (stereo not drawn)	-1%
CC(C)C(=O)N1CCCCCC1c1nnc(-c2ccccc2)o1 (stereo not drawn)	2%
c1ccc2c(CN3CCn4c(nnc4C4CCCNC4)C3)cccc2c1 (stereo not drawn)	0%
Cc1ccc(-c2cn(C3CN(C(=O)C(C)CN4CCOCC4)C3)nn2)cc1 (stereo not drawn)	-9%
CCN1C(=O)CCC2(C(=O)NCc3cccc(F)c3)CCCC=C12 (stereo not drawn)	-1%
O=C1CC(c2ccccc2)N(C(=O)CNC(=O)c2cc(CN3CCOCC3)on2)CCCCCN1 (stereo not drawn)	2%
COCCCn1c(C)cc(C(=O)N2CC(COC)C3(CCNCC3)C2)c1C (stereo not drawn)	-5%
O=C(Cn1ccc2ccccc2c1=O)N1CCCOC(Cn2cccn2)C1 (stereo not drawn)	3%
COc1nccc(N2CCC(CC(=O)N3CCN(CCC#N)CC3)CC2)n1	-13%
CCS(=O)(=O)N1CCC[C@H](n2c(=O)n(C)c3cccnc32)C1	0%
Cn1cc(-c2ccc([S+](C)(=O)[O-])cc2)c2nc(CNc3ccccc3)cn2c1=O	1%[70.6 µM]
O=C(NCc1cccs1)c1nc(-c2ccsc2)c2ccccn12	15%[70.6 µM]
COc1ccc(-c2ccnc(N[C@H]3CO[C@H]4[C@@H]3OC[C@H]4OC(=O)Nc3ccc(C(C)(C)C)cc3)n2)cc1	-25%
